High-throughput results (PubChem BioAssay)
KCNQ2 inh: KCNQ2 potassium channel inhibitors, primary screen, cell-based, CHO-K1, FluxOR thallium flux, B-score (AID 2156) | B-score at 10 µM | 1.1% of 310,000 active | 20 min; hits give low values; only compounds with negative scores are shown here; some inactives read as strong as hits | Potassium voltage-gated channel subfamily KQT member 2 (Rattus norvegicus), O88943;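 active = fluorescence ratio B-score at most minus 3 library SDs, with starting brightness B-score within 2 library SDs, cut at about -5.5 in these data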
Target sequence (O88943 whole entry, looked up): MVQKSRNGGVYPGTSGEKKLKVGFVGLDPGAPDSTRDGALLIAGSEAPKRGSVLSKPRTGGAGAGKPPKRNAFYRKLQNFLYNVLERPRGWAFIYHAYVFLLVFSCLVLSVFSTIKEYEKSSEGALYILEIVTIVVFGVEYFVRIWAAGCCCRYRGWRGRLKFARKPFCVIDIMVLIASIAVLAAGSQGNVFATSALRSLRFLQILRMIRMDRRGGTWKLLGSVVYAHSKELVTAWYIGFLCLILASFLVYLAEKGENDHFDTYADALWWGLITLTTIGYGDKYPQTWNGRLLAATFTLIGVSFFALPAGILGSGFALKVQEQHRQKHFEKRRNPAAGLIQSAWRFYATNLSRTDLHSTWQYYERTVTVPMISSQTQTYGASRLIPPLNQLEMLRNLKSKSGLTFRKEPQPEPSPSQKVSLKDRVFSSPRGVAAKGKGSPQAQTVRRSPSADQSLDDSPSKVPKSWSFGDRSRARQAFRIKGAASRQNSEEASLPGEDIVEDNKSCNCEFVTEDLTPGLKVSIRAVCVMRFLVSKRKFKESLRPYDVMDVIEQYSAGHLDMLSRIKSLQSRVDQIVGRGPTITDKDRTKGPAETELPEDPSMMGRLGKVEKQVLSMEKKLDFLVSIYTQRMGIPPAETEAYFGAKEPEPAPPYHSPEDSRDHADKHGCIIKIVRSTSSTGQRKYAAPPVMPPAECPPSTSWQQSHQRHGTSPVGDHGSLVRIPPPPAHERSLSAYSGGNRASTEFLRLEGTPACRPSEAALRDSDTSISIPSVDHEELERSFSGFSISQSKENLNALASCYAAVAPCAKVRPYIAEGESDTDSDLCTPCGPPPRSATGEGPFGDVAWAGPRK
KCNQ2 inh baseline: recorded beside KCNQ2 inh, whose call it bears; B-score; measured here: initial fluorescence intensity artifact check;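 brightness before thallium and not channel activity; 0 = typical well and far values either way flag optical interference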
Numbers without * were called inactive; i = inactive. An excerpt; count on the stated rates, not on these rows.

SMILES	KCNQ2 inh	KCNQ2 inh baseline
O=C(Nc1ccc(N=Nc2ccccc2)c(NC(=O)C2CCCO2)c1)C1CCCO1 (configuration not stated)	i	-1.7
Cc1ccc(C(C(=O)NC(C)(C)C)N(Cc2ccc3c(c2)OCO3)C(=O)c2ccc(CN3CCOCC3)o2)o1 (configuration not stated)	i	1.3
CCc1ccc2c(c1)C(c1ccc([N+](=O)[O-])cc1)=NNC(c1ccccc1)=N2	i	1.3
CCOc1ccc(N(CC(=O)N2CCN(c3ccccc3F)CC2)S(=O)(=O)c2c(C)noc2C)cc1	i	0.07
Cc1c(NC(=O)c2ccccc2N(C)S(=O)(=O)c2ccccc2)c(=O)n(-c2ccccc2)n1C	i	1.6
COc1ccc(C(=O)NC2CCN(C(=O)NCc3ccccc3)CC2)cc1	i	3.3
Nn1c(SCC(=O)Nc2c(F)cc(F)cc2Br)nnc1C1CCCCC1	i	-0.65
Cc1ccc(NC(=O)Cn2cnc3c(cnn3C(C)(C)C)c2=O)cc1	i	0.23
CC(=O)/C(=C\N(C)C)Sc1ccc(Cl)cc1	i	-0.94
Cc1cc(SCC(=O)OC(C)C(=O)N(C)c2ccccc2)nc2ccccc12 (configuration not stated)	i	0.12
Cc1ccc(F)cc1CNC(=O)C1CCC(=O)N(CC2CCCCC2)C1 (configuration not stated)	i	1
Clc1ccc(CN(CC2CCCO2)C(c2cccs2)c2nnnn2C2CCCC2)cc1 (configuration not stated)	i	-1.5
COc1ccccc1CNC(=O)C1CCCN(S(=O)(=O)c2cccc3nsnc23)C1 (configuration not stated)	i	-2.1
COc1ccc(/C=C(\C#N)c2c[nH]c3ccccc23)cc1	i	-1.1
Cc1ccc(N(CCC#N)C(=O)COC(=O)c2nc3nc(C)cc(C)n3n2)cc1	i	0.87
CCCCNC(=O)CCCCCNS(=O)(=O)c1ccc(Br)cc1	i	2.3
O=C(NCCN1CCOCC1)c1cc2n(n1)C(C(F)(F)F)CC(c1ccc(F)cc1)N2 (configuration not stated)	i	0.82
Nc1ccc2c(c1)sc1ccccc12	i	-0.17
CCCCSc1nc2ccccc2n1CC(=O)O	i	0.56
Cc1ccc(C(=O)N(CC(C)C)c2nc3ccccc3s2)o1	i	0.08
CC(C)C(NC(=O)C12CC3CC(CC(C3)C1)C2)C(=O)N/N=C/C1=C(N2CCOCC2)C(=C\c2ccc([N+](=O)[O-])cc2)/CC1 (configuration not stated)	i	0.29
COc1ccc(-n2ncc3c2CC(C)(C)CC3NC(=O)c2cnc(C)cn2)cc1 (configuration not stated)	i	0.67
COc1ccc(OC)c(C2NC(=O)NC(C)=C2C(=O)Nc2ccc(C)cc2C)c1 (configuration not stated)	i	-0.99
Cc1c(Cl)ccc2c1NC(=O)C21NC(CCC(N)=O)[C@H]2C(=O)N(c3ccc(Cl)cc3)C(=O)[C@H]21 (some centres not stated)	i	-0.35
O=C(c1ccccc1)N1N=C(c2ccccc2)CC1c1ccccc1 (configuration not stated)	i	-0.01

An excerpt from above in order of their number in KCNQ2 inh baseline, high to low:
SMILES	KCNQ2 inh	KCNQ2 inh baseline
Cc1ccc(N(CCC#N)C(=O)COC(=O)c2nc3nc(C)cc(C)n3n2)cc1	i	0.87
CCCCSc1nc2ccccc2n1CC(=O)O	i	0.56
CC(C)C(NC(=O)C12CC3CC(CC(C3)C1)C2)C(=O)N/N=C/C1=C(N2CCOCC2)C(=C\c2ccc([N+](=O)[O-])cc2)/CC1 (configuration not stated)	i	0.29
COc1ccc(/C=C(\C#N)c2c[nH]c3ccccc23)cc1	i	-1.1

The main list resumes, starting two compounds before the break.
SMILES	KCNQ2 inh	KCNQ2 inh baseline
Cc1c(Cl)ccc2c1NC(=O)C21NC(CCC(N)=O)[C@H]2C(=O)N(c3ccc(Cl)cc3)C(=O)[C@H]21 (some centres not stated)	i	-0.35
O=C(c1ccccc1)N1N=C(c2ccccc2)CC1c1ccccc1 (configuration not stated)	i	-0.01
CC(C)CC(NC(=O)OC(C)(C)C)c1cn([C@@H](CCC(=O)OC(C)(C)C)C(=O)N2CCN(C(=O)OC(C)(C)C)CC2)nn1 (some centres not stated)	i	0.72
Cc1cccc(C(=O)NCCc2nnc(SCC(=O)Nc3cccc(C(=O)O)c3)n2C)c1	i	1.5
O=C(c1ccc(Cl)cc1)c1nnc(-c2ccncc2)o1	i	0.05
O=C(/C=C/c1cc([N+](=O)[O-])ccc1OC(F)F)Nc1cccc(OC(F)F)c1	i	0.03
COc1cccc(-c2nc(CS(=O)(=O)CC(=O)Nc3ccc(F)cc3F)c(C)o2)c1	i	-0.01
CCc1ccc(C(=O)COC(=O)c2cccc(N3C(=O)c4c(C)nc5ccccc5c4C3=O)c2)cc1	i	-2.9
Cc1cccc2nc(CSc3nnnn3-c3ccccc3)cn12	i	3.8
O=C(NCCN1CCOCC1)N1CCOCC1	i	-1.7
CCN(c1ccccc1)S(=O)(=O)c1ccc(C(=O)Nc2nnc(CSC)o2)cc1	i	1.4
CC1(C)Cc2c(C#N)c(N3CCCC3)nc(-c3ccco3)c2CO1	-9.1*	-0.53*
Cc1nc2scc(C)n2c(=O)c1S(=O)(=O)Nc1ccc(N2CCOCC2)cc1	i	1.1
CCOc1ccc(S(=O)(=O)NNS(=O)(=O)c2ccc(C)cc2C)cc1	i	3.6
CCCOc1ccc(C(=O)c2nc3c(n2O)CCCCC3)cc1	i	4.5
COc1ccc(N2CCN(CC(O)COc3ccc4c(c3)CCC4)CC2)cc1 (configuration not stated)	i	-1.3
CN=C1S/C(=C\c2ccc(N3CCOCC3)cc2C)C(=O)N1C	i	0.19
C=C(C)c1cccc(C(C)(C)NC(=O)NNC(=O)c2ccccc2O)c1	i	-0.09
Cc1cnc(C(=O)Nc2ccc(N3CCN(C(=O)OC(C)(C)C)CC3)cc2)cn1	i	0.01
COC(=O)Nc1cc(C)n(-c2ccccc2)n1	i	-0.32
O=c1c2c(-c3ccc(Cl)cc3)csc2ncn1/N=C/c1cccc([N+](=O)[O-])c1O	i	0.54
COc1ccc(C(=O)C2CCCN(C3Cc4ccccc4C3)C2)cc1OC (configuration not stated)	i	-0.69
CCN(CC)S(=O)(=O)c1ccc(-c2nnc(SCC(=O)Nc3ccc4c(c3)OCO4)o2)cc1	i	0.04
Cc1cccc(N2CCN(CC(=O)Nc3ccccc3[N+](=O)[O-])CC2)c1C	i	-2.9
O=C(O)c1ccc(NC(=S)NCc2ccccc2)cc1	i	-0.05
Cc1ccc(-c2cc(-c3ccccc3[N+](=O)[O-])[nH]n2)c(O)c1	i	0.03
O=C(Nc1nccs1)c1ccc(S(=O)(=O)N2CCCCC2)cc1	i	0.01

In a second layout: results already given.
Value order: KCNQ2 inh | KCNQ2 inh baseline
> CC(C)CC(NC(=O)OC(C)(C)C)c1cn([C@@H](CCC(=O)OC(C)(C)C)C(=O)N2CCN(C(=O)OC(C)(C)C)CC2)nn1 (some centres not stated)
 : i | 0.72
> Cc1cccc(C(=O)NCCc2nnc(SCC(=O)Nc3cccc(C(=O)O)c3)n2C)c1
 : i | 1.5
> O=C(c1ccc(Cl)cc1)c1nnc(-c2ccncc2)o1
 : i | 0.05
> O=C(/C=C/c1cc([N+](=O)[O-])ccc1OC(F)F)Nc1cccc(OC(F)F)c1
 : i | 0.03

More results
SMILES	KCNQ2 inh	KCNQ2 inh baseline
Cc1oc(-c2cccc3ccccc23)nc1CN1CCN(c2ncnc3ccccc23)CC1	i	-0.13
C/C(=N\NC(=O)c1ccc(O)cc1)c1ccc(NC(=O)Cc2ccccc2)cc1	i	2.8
Cc1nonc1C1CCCN1Cc1cn[nH]c1-c1ccc2c(c1)OCO2 (configuration not stated)	i	0.76
Cc1cccc(NC(=O)CSc2nnnn2C2CCCC2)c1	i	-0.13
CC1Cc2c([nH]c3ccccc23)C(=O)N1 (configuration not stated)	i	-0.68
COc1cccc(NC(=O)C2CCCO2)c1 (configuration not stated)	i	-2.3
COc1ccc(C(=O)Nc2nc(C)c(C(=O)N(C)C)s2)cc1OC	i	-0.08
Cc1ccc(S(=O)(=O)NCCc2cc3ccc(C)c(C)c3[nH]c2=O)cc1	i	-0.03
O=C(c1ccccc1)c1c[nH]cc1-c1ccccc1	i	0.34
CCn1cc(-c2ccnc3cc(C(=O)O)nn23)c(C)n1	i	0.03
CCC1Oc2ccccc2N(CC(=O)NCCc2ccc(OC)c(OC)c2)C1=O (configuration not stated)	i	-0.16
COc1cc(C(=O)NCCC(=O)NC2CCC(C)CC2)cc(OC)c1OC (configuration not stated)	i	1.3
O=C(Nc1scc(-c2ccccc2)c1C(=O)O)c1ccccc1Cl	i	0.72
COc1cc(-c2nnc3sc(-c4ccncc4)nn23)cc(OC)c1OC	i	-1.6
O=C(NNC(=O)C1C2CCC(C2)C1C(=O)O)c1cccc(Cl)c1 (configuration not stated)	i	0.03
Cc1ccc(C(=O)c2coc3ccc(O)c(Cl)c23)cc1	i	-0.07
COC(=O)c1ccc(NC(=O)c2ccc3c(c2)C(=O)N(Cc2cccnc2)C3=O)cc1	i	-0.14
CC(C)n1c(-c2ccco2)csc1=Nc1cccnc1	i	-1.4
O=C(NCC1CCCO1)C1CCN(S(=O)(=O)c2cc(Cl)ccc2Cl)CC1 (configuration not stated)	i	-0.01
COc1cc(OC)cc(C(=O)NCc2cccnc2)c1	i	0.95
CC(C)CCN1CCN(Cc2ccc(C#CC(C)(C)O)s2)CC1CCO (configuration not stated)	i	1.5
Cc1onc(-c2ccccc2Cl)c1C(=O)N1CCC(Cc2ccccc2)CC1	i	-1.1
N#C/C(=C(\O)Cc1ccccc1)c1nc2ccccc2[nH]1	i	1
Cc1nccn1CC(O)COC1CCCCC1 (configuration not stated)	i	-0.23
COc1ccc(-n2c(=O)[nH]cc(C(=O)Nc3ccc4c(c3)OCO4)c2=O)cc1OC	i	1.9

Carrying on.
SMILES	KCNQ2 inh	KCNQ2 inh baseline
Cc1cc2nc(CCl)cc(=O)n2[nH]1	i	-0.29
Cc1c(C)n(C)c2ccc(C(=O)Nc3cccc4ccccc34)cc12	i	-1.5
CC(=O)C(/C=N/c1cc(-c2ccc(C)cc2)nn1-c1ccccc1)=C(\C)O	i	-0.08
N#CC(=C=[N-])c1nc2ccccc2nc1-[n+]1cccc(NC(=O)c2cccs2)c1	i	-2.1
Cc1ccc(N2C(=O)CC(N3CCN(C)CC3)C2=O)cc1 (configuration not stated)	i	1.2
CCC(C)N(C)C1CCN(C(=S)Nc2cccc(SC)c2)CC1 (configuration not stated)	i	-0.04
CC1CN(C(=O)/C=C/c2ccc(SC(F)F)cc2)CC(C)O1 (configuration not stated)	i	-0.82
COc1cccc(C2C(C#N)=C(N)Oc3cc(C)n(Cc4ccccn4)c(=O)c32)c1OC (configuration not stated)	i	1
CCOC(=O)C1(CCCc2ccccc2)CCN(Cc2cnc(C)s2)CC1	i	-1.2
Brc1csc2ncccc12	i	1.7
CC(C)c1[nH]nc2c1C(c1cccnc1)C(C#N)=C(N)O2 (configuration not stated)	i	0.63
CC(C)n1c(N2CCN(C(=O)N3CCCCC3)CC2)nc2ccccc21	i	-1.6
c1ccc(Cc2nnc3n2CCCCC3)cc1	i	2.9
COc1ccccc1NC(=O)CSc1nc(N)c(C#N)cc1C#N	i	0.51
CCc1cc2c(=O)n(C(C)C(=O)OC3CCCCC3)cnc2s1 (configuration not stated)	i	0.19
COc1ccc(-c2nnn(CC(=O)OC3CCCCC3)n2)cc1OC	i	1.9
CCCCN=C1CC(C)(C)CC(=O)/C1=C(/O)CCCN1C(=O)c2ccccc2C1=O	i	0.86
O=C(CSc1nc2ccccc2[nH]1)NCCCn1ccnc1	i	-0.01
CN(C)c1cccc(C(=O)Nc2cccc(F)c2)c1	i	-1
C/C(=C\C(=O)c1ccccc1)Nc1ccc2c(c1)OCO2	i	0.22
COc1ccc(C2NCCn3cccc32)cc1 (configuration not stated)	i	0.05
CN(CCC#N)C(=O)COC(=O)c1c2c(nc3ccccc13)/C(=C/c1ccco1)CC2	i	0.7
N#Cc1cccc(NC(=O)Cn2cnc(S(=O)(=O)N3CCOCC3)c2)c1	i	-0.2
CCCCc1ccc(C2C3=C(CC(C)(C)CC3=O)NC3=C2C(=O)c2ccccc23)cc1 (configuration not stated)	i	-0.07
CN(C[C@@H](CC1CCCCC1)N(C[C@H](Cc1ccccc1)N(CCc1ccccc1)N=O)N=O)N=O	i	-1.5

Additional structures follow.
SMILES	KCNQ2 inh	KCNQ2 inh baseline
COc1cc(C(=O)N=c2sc3c(C)ccc(OC)c3n2C)cc(OC)c1OC	i	-0.72
Cc1ccc(OCC(=O)N(Cc2ccccc2)c2ccccn2)cc1	-8.2*	-0.89*
O=C(COc1cccc(-n2cnnn2)c1)Nc1ccc([N+](=O)[O-])cc1	i	-0.53
O=C(CNC(=O)c1ccccc1)NCC(=O)OCc1ccccc1Cl	i	0.07
Cc1c(N2C(=O)C(C)SC23C(=O)Nc2ccccc23)c(=O)n(-c2ccccc2)n1C (configuration not stated)	i	2.5
COc1ccc(-c2csc3ncnc(N4CCN(S(=O)(=O)c5ccc(C)cc5)CC4)c23)cc1	i	0.09
COc1cccc2cc(C(=O)N(Cc3ccccc3)CC3CCCO3)c(=O)oc12 (configuration not stated)	i	-0.05
CCOC(=O)COc1ccccc1/C=N\NC(=O)c1cc2c(ccc3ccccc32)o1	i	-0.08
O=C(CSc1n[nH]c(=O)[nH]c1=O)NCC1CCCCC1	i	0.82
COc1cccc(NC(=O)CCc2c(C)nn(-c3ccc(N4CCOCC4)nn3)c2C)c1	i	0.25
Clc1ccccc1C1CC(c2ccccc2)=Nc2ccccc2N1 (configuration not stated)	i	1.2

Part of the list above, set out differently:
mol: Cc1ccc(OCC(=O)N(Cc2ccccc2)c2ccccn2)cc1
  KCNQ2 inh: -8.2*
  KCNQ2 inh baseline: -0.89*
mol: Clc1ccccc1C1CC(c2ccccc2)=Nc2ccccc2N1 (configuration not stated)
  KCNQ2 inh: i
  KCNQ2 inh baseline: 1.2
mol: O=C(CSc1n[nH]c(=O)[nH]c1=O)NCC1CCCCC1
  KCNQ2 inh: i
  KCNQ2 inh baseline: 0.82
mol: COc1cccc2cc(C(=O)N(Cc3ccccc3)CC3CCCO3)c(=O)oc12 (configuration not stated)
  KCNQ2 inh: i
  KCNQ2 inh baseline: -0.05
